KCNQ2 enhance = enhances the rat KCNQ2 potassium channel | 310,000 tested, 0.54% active | AID 2239 | B-score at 10 µM | CHO-K1 KCNQ2, FluxOR thallium flux fluorescence; hits give high values | O88943;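 active = fluorescence ratio B-score at least 3 SD of library B-scores, with initial fluorescence B-score within 3 SD, cut at about 5.3 in these data; same plate scores as AID 2156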;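 also: B-score of peak minus minimum over baseline fluorescence ratio after K+ and Tl+ stimulus; positive B-score means potentiation of KCNQ2 with more thallium influx and brighter signal; only the inactives scoring about 0 or higher are listed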
Target sequence (O88943 whole entry, looked up): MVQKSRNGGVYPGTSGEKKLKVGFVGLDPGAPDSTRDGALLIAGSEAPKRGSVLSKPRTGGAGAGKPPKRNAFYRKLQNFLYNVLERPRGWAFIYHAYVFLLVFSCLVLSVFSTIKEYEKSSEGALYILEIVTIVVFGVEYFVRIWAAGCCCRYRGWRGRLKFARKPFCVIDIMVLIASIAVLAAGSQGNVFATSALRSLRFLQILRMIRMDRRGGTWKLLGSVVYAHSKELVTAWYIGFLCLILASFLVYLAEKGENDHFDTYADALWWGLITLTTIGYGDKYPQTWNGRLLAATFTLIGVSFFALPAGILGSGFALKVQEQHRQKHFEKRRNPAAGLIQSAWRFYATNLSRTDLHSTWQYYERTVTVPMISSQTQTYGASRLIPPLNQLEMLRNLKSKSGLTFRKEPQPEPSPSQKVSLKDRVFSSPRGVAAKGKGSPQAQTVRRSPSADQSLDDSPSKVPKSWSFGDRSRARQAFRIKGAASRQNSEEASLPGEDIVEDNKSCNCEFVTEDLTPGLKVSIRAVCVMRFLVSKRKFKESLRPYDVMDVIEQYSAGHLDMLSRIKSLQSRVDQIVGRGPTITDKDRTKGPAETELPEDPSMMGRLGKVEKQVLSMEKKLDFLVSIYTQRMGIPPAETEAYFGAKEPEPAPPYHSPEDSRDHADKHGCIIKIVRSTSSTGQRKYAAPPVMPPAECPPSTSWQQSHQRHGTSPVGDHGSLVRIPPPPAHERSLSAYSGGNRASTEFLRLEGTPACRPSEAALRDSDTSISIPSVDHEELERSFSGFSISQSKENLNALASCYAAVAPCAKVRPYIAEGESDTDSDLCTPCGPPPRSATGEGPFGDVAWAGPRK
KCNQ2 enhance baseline = further read-out of KCNQ2 enhance, marked with its call; B-score; compound at 10 µM; measured here: initial fluorescence intensity artifact check;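 brightness before thallium and not channel activity; 0 = typical well and far values either way flag optical interference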
Active calls of the source: *; . = not tested or not shown. This is a subset. The share of hits here may be higher or lower than overall.

smiles | KCNQ2 enhance | KCNQ2 enhance baseline
O=C(CNC(=O)OCc1ccccc1)Nc1ccc(Br)cc1C(=O)c1ccccc1 | 0.36 | -1.7
CC[C@H]1CN2CC[C@@]3(C(=O)Nc4ccccc43)[C@@H]2C[C@@H]1/C(=C\OC)C(=O)OC | 0.32 | -0.78
C/C(=N\NC(=S)Nc1ccccc1)c1c(O)n(C)c(=O)n(C)c1=O | 1 | 1.7
CN1C(=O)N(C)C(=O)C2(Cc3cc([N+](=O)[O-])ccc3N(C)C2)C1=O | 0.75 | -0.99
COc1cc2c(cc1OC)C(C(=O)N1CCC3(CC1)OCCO3)C(c1ccccc1F)N(C)C2=O (stereo not given) | 0.09 | -0.37
CN(C)P(=O)(CCl)Nc1ccccc1 (stereo not given) | 0.29 | -0.09
Cc1cc(C)c(-n2c(O)c(/C=N/N3CCCCC3c3cccnc3)c(=O)[nH]c2=O)c(C)c1 (stereo not given) | 0.51 | 0.83
O=C1N(c2nncs2)CCN1[N+](=O)[O-] | 1.6 | -2.1
CCn1cc(/C=c2/sc3n(c2=O)C2c4ccccc4OC(C)(N=3)C2C(=O)OC)c(C)n1 (stereo not given) | 0.01 | -0.08
CCOP(=O)(OCC)c1cccc(O)c1 | 0.02 | 0.32
O=C(Nc1ccc(Cl)cc1C(=O)c1ccccc1)c1ccc(Br)o1 | 1.1 | -0.64
CCS(=O)(=O)NCc1nnc2n1-c1ccc(Cl)cc1C(c1ccccc1)=NC2 | 0.47 | -0.69
CCC(C)n1c(O)c(C=Nc2cccc(C(F)(F)F)c2)c(=O)[nH]c1=S (stereo not given) | 0.69 | 2.4
CC1CCC(C(=O)NC(C(=O)N2CCC3(CC2)OCCO3)C(C)C)CC1 (stereo not given) | 1.5 | -0.07
CC1=NN(c2ccccc2)C(=O)/C1=C/c1c(O)[nH]c(=O)[nH]c1=O | 0.51 | -0.57
CC(C)(C)n1cc(C(=O)c2ccc3ccccc3c2O)cn1 | 0.02 | -0.48
O=[N+]([O-])c1ccc(NCc2ccc(Cl)cc2)c2ccncc12 | 0.1 | 0.07
C=Cn1ccnc1P(=S)(c1cc(N(CC)CC)ns1)c1nccn1C=C | 1.8 | -0.87
COC(=O)C1=C(c2cccc(OC)c2OC)C[C@@H]2CC[C@H]1N2C(=O)NCc1ccco1 | 0.94 | -0.36
C[C@]12CC[C@@H](O)C[C@@H]1CC[C@@H]1[C@@H]2CC[C@]2(C)[C@@H](O)CC[C@@H]12 | 1.1 | -0.79
Cc1cc(/C=C2\C(=O)NC(=O)N(c3ccc(Br)cc3)C2=O)c(C)n1C | 0.49 | -2
C/C(=N\NC(N)=O)c1c(O)n(C)c(=O)n(C)c1=O | 0.55 | -0.82
CCCCc1nc2ccccc2c(=O)n1-c1ccccc1O | 0.06 | 1.4
CC(C)OP(=O)(OC(C)C)C(O)c1cccnc1 (stereo not given) | 0.62 | 1
CC(=NCCN1CCCCC1)c1c(O)n(Cc2ccccc2)c(=O)[nH]c1=O | 0.02 | -1.6
CCN(CC)CCN=Cc1c(O)n(C2CCCCCC2)c(=O)[nH]c1=O | 0.38 | -0.04
CCCCC1(CCCC)C(=O)NC(=Nc2cccc(C)c2)NC1=O | 2.7 | -1.1
O=[N+]([O-])c1ccc(-[n+]2c(-c3ccccc3)cc(-c3ccccc3)cc2-c2ccccc2)cc1 | 0.04 | -1.1
O=C(O)[C@@H]1C[C@H]1[C@@H](NP(=O)(c1ccccc1)c1ccccc1)c1ccccc1 | 0.55 | 0.98
Cc1ccccc1-n1c(/C=C/c2ccccn2)nc2ccccc2c1=O | 1 | -1.9
COc1ccc(C(CNC(=O)Cc2ccc(Cl)c(Cl)c2)N(C)C)cc1 (stereo not given) | 0.17 | 2.1
CN1CCN(CC(=O)Nc2ccc([N+](=O)[O-])cc2C(=O)c2ccccc2)CC1 | 3 | -1.3
CC[C@H]1CN(C)CCc2c([nH]c3ccccc23)C(=O)C[C@@H]1/C(=C\OC)C(=O)OC | 0.44 | 0.07
Cc1cc(NC(=O)CCl)on1 | 0.99 | 0.32
O=C(c1cccc(Cl)c1)C1CCCN(Cc2ccon2)C1 (stereo not given) | 1.3 | 1.4
COc1cccc(C2(O)CCSCC2CN(C)C)c1 (stereo not given) | 0.76 | -0.02
c1ccc2c(CCNCc3ccc4c(c3)OCO4)c[nH]c2c1 | 0.5 | 0.01
O=C1CN=C(c2ccccc2Cl)c2cc(Br)ccc2N1 | 2.4 | -0.66
CN1CCN(C(=O)COc2ccc(Oc3ccccc3)cc2)CC1 | 0.57 | -0.19
COc1ccccc1OCCCn1cc(C=O)c2ccccc21 | 0.33 | -1.2
C[N+](C)(C)CC(=O)Nc1ccc(Cl)cc1C(=O)c1ccccc1 | 0.03 | 0.6
CC(=O)Nc1ccc(OC(=O)N(C)c2ccc(C)cc2)cc1 | 0.96 | 0.73
CC(O)(CS(=O)(=O)c1cccc(C(F)(F)F)c1)C(=O)Nc1cccc(C(F)(F)F)c1 (stereo not given) | 1.3 | -0.14
CCC(C)c1ccc(N2C(=O)NC(=O)/C(=C/c3cccn3CCOc3ccc(C)cc3)C2=O)cc1 (stereo not given) | 0.02 | 1.4
c1ccc2c(c1)Sc1ccccc1N2CC1CN2CCC1CC2 (stereo not given) | 0.05 | 0.53
COC(=O)C1=C(c2ccccc2)C[C@@H]2CC[C@H]1N2C(=O)N1CCCCC1 | 0.99 | 0.58
COc1cc(OC)c(OC)cc1CNC(C)C(O)c1ccccc1 (stereo not given) | 0.84 | -0.11
CSc1nnc([C@@H](N)Cc2c[nH]c3ccccc23)o1 | 0.79 | -2.2

(more compounds)
Values run as follows: KCNQ2 enhance, KCNQ2 enhance baseline
Cc1ccc(OCC(=O)NCCN2CCN(C(=O)COc3ccc(C)cc3)CC2)cc1
 : 0.14, 0.6
O=C1C2CCN(CC2)C1Cc1ccc(OCc2ccccc2)cc1 (stereo not given)
 : 0.66, 0.05
COC(=O)c1cccc(NC(=O)N2C[C@H]3C[C@@H](C2)c2cccc(=O)n2C3)c1
 : 0.02, -0.87
O=c1[nH]c(=O)n(Cc2ccc(F)cc2)c(O)c1/C=N/Nc1ccccc1
 : 0.11, -1.2
CN=C(SCC(=O)c1cccc(Cl)c1)c1c(O)n(C)c(=O)n(C)c1=O
 : 0.09, -1.4
C#CC[N+]1(C)[C@@H]2CC(OC(=O)C(CO)c3ccccc3)C[C@H]1C(O)C2 (stereo not given in full)
 : 0.78, 0.13
CCOC(=O)c1ccc(NC(=O)C2C3C=CC(O3)C2C(=O)O)cc1 (stereo not given)
 : 0.08, -0.1
CCOC(=O)C(=O)NC1CCSC1=O (stereo not given)
 : 1.5, 0.23
Cc1ccc(C2=NN(CCC(=O)N3CCC4(CC3)OCCO4)C(=O)CC2)cc1
 : 0.25, -0.55
COc1cc2c(C(=O)O)c(C)n(C)c2cc1Br
 : 0.01, 2
O=C(NCCN1CCCCC1)c1ccc(Cl)nc1Cl
 : 1.4, -1.3
Clc1ccccc1C1=NCc2nncn2-c2sc(Br)cc21
 : 0.41, 0.35
Cc1ccc(-n2c(O)c(C=NCCC3=CCCCC3)c(=O)[nH]c2=O)cc1
 : 1, -1.9
Cc1ccc(-c2nc3ccccc3c(=O)n2-c2ccccn2)cc1
 : 0.1, 0.53
C=C1N2CCC(CC2)C1(O)c1ccc(C)c(C)c1 (stereo not given)
 : 0.71, -0.41
O=P(Nc1cccc(Cl)c1)(Oc1ccccc1)Oc1ccccc1
 : -5.6, .
O=C1NC(=O)C2(Cc3cc([N+](=O)[O-])ccc3N3CCN(C(=O)c4ccccc4)CC32)C(=O)N1 (stereo not given)
 : 0.02, 0.01
Cc1cc(OC(C)C(=O)NCc2cccnc2)c2c3c(c(=O)oc2c1)CCC3 (stereo not given)
 : 1, 0.33
CCC(N)Cc1c[nH]c2ccccc12 (stereo not given)
 : 0.81, 0.05
CC1=C(C(=O)N2CCC3(CC2)OCCO3)C2(CCC(C)CC2)OC1=O (stereo not given)
 : 0.01, 0.02
O=c1[nH]c(=O)n(Cc2ccccc2)c(O)c1C=NCCCn1ccnc1
 : 1, 0.3
Cc1ccc(-n2c(O)c(C=NCCN3CCOCC3)c(=O)[nH]c2=O)cc1
 : 0.3, -2.4
COc1cccc(CN2CCCCC2c2cccnc2)c1 (stereo not given)
 : 1.1, -1
CP(C)(=O)CCC(=O)O
 : 0.28, 0.1
COc1ccc(NC2(C#N)CCCCC2)cc1
 : 1.4, 0.64
CC(C(=O)Nc1ccc(Br)cc1C(=O)c1ccccc1)N1CCOCC1 (stereo not given)
 : 0.37, -1.3
Cc1cc(C)cc(N2C(=O)NC(=O)/C(=C\c3cccn3-c3ccc(Cl)cc3)C2=O)c1
 : 0.85, 1.3
Cc1[nH]c2ccccc2c1C(=O)CN1CC=C(c2ccccc2)CC1
 : 0.27, 0.17
COc1cccc(OC)c1C(=O)Nc1nc(N)n(-c2ccccc2)n1
 : 0.07, 1.6
C=C(C)c1cccc(C(C)(C)NC(=O)NC2CN3CCC2CC3)c1 (stereo not given)
 : 0.62, -1.2
CCC(C)C(NC(=O)CCCNC(=O)CCC(=O)OC1O[C@H]2OC3(C)CC[C@H]4[C@H](C)CCC(C1C)C24OO3)C(=O)O (stereo not given in full)
 : 1.6, -0.17
CCC(=NCc1ccco1)c1c(O)n(-c2ccccc2C)c(=O)[nH]c1=O
 : 0.06, 1.8
COc1cc(N2CCOCC2)ccc1/C=C1\C(=O)NC(=O)N(Cc2cccs2)C1=O
 : 1.2, -3.3
CCn1c(C)c(C(=O)O)c2cc(OC)ccc21
 : 1.4, -2.5
CC(=NCc1cccnc1)c1c(O)n(Cc2ccccc2)c(=O)[nH]c1=O
 : 0.2, -0.15
COc1ccc(CNCCc2c[nH]c3ccccc23)cc1OC
 : 1, 0.82
CC1CN(c2ccc([N+](=O)[O-])c3cccnc23)CC(C)N1 (stereo not given)
 : 0.88, -0.79
C=CCn1c(O)c(C(C)=NCCN2CCCCC2)c(=O)[nH]c1=O
 : 0.58, -1.6
COc1ccc(C(CNC(=O)CCc2ccsc2)N(C)C)cc1 (stereo not given)
 : 1.1, 0
CC(=O)NCC(=O)Nc1ccc(Br)cc1C(=O)c1ccccc1
 : 3.5, -1
Cn1c(O)c(C2=NN(C(=O)CCl)C(c3ccccc3)C2)c(=O)n(C)c1=O (stereo not given)
 : 1.2, -0.68
C/C(CCc1c[nH]c2ccccc12)=N\O
 : 0.1, 0.26
CC1(C)C(c2ccccc2)=NC(c2cccnc2)N1O (stereo not given)
 : 0.98, -1
O=c1[nH]c(=O)n(Cc2ccccc2)c(O)c1/C=N/NCCO
 : 1.3, -0.07
COc1ccccc1N1C(=O)NC(=O)C2(Cc3cc(C)ccc3N(C)C2)C1=O (stereo not given)
 : 0.13, 0.52
COc1ccc(CCn2c(O)c(C=NCc3cccnc3)c(=O)[nH]c2=O)cc1OC
 : 2, -1.3
c1ccc(C2NCCc3[nH]cnc32)cc1 (stereo not given)
 : 0.36, -1.2
O=c1[nH]c(=S)n(Cc2ccc(F)cc2)c(O)c1C=NCc1cccnc1
 : 0.66, 0.16
CCCCn1c(O)c(C(C)=NCc2ccc3c(c2)OCO3)c(=O)[nH]c1=O
 : 0.07, 0.86
CCCC(CCC)C(=O)OC[N+](C)(C)CCOC(=O)C(O)(c1ccccc1)C1CCCC1 (stereo not given)
 : 0.18, 0.31
O=C1NC(=O)C(CCc2ccncc2)(CCc2ccncc2)C(=O)N1CCc1ccccc1
 : 0.59, 0.03
CCC(=O)c1c(O)n(C2CCCCCC2)c(=O)[nH]c1=O
 : 0.58, 0.48
CCCCNc1ccncc1S(=O)(=O)NC(=O)NC(C)C
 : 0.33, 2.5
C=CCn1c(O)c(/C=N/N2CCCCC2)c(=O)[nH]c1=O
 : 0.12, 0.67
C=CCN(CC#CCOc1ccccc1OC)CC=C
 : 0.83, 2.2
Cc1ccc(S(=O)(=O)N2CCN(C(=O)COC(=O)Cc3ccccc3)CC2)c(C)c1
 : 1.9, -1.9
COc1ccc(-n2nc(C(=O)NCC(=O)N3CCC4(CC3)OCCO4)c3ccccc3c2=O)cc1
 : 0.42, -0.41
Cc1nc2ccccc2c(=O)n1-c1ccc(Cl)cc1[N+](=O)[O-]
 : 1.4, 1.8
O=C(COc1ccc(S(=O)(=O)N2CCCCC2)cc1)N1CCN(Cc2ccccc2)CC1
 : 0.39, 0.58
COc1ccc(-c2nc3ccccc3n2OC(=O)N(C)C)cc1
 : 1.2, -1.8

As a short view, seven of the compounds above:
Values run as follows: KCNQ2 enhance, KCNQ2 enhance baseline
CCCCNc1ccncc1S(=O)(=O)NC(=O)NC(C)C
 : 0.33, 2.5
C=CCn1c(O)c(/C=N/N2CCCCC2)c(=O)[nH]c1=O
 : 0.12, 0.67
C=CCN(CC#CCOc1ccccc1OC)CC=C
 : 0.83, 2.2
Cc1ccc(S(=O)(=O)N2CCN(C(=O)COC(=O)Cc3ccccc3)CC2)c(C)c1
 : 1.9, -1.9
COc1ccc(-n2nc(C(=O)NCC(=O)N3CCC4(CC3)OCCO4)c3ccccc3c2=O)cc1
 : 0.42, -0.41
Cc1nc2ccccc2c(=O)n1-c1ccc(Cl)cc1[N+](=O)[O-]
 : 1.4, 1.8
O=C(COc1ccc(S(=O)(=O)N2CCCCC2)cc1)N1CCN(Cc2ccccc2)CC1
 : 0.39, 0.58

The results go on.
Values run as follows: KCNQ2 enhance, KCNQ2 enhance baseline
CN1CCN(Cc2ccccc2Sc2ccccc2)CC1
 : 0.2, 0.89
COc1ccc(NC(=S)NC(NC(=O)CF)C(Cl)(Cl)Cl)cc1[N+](=O)[O-] (stereo not given)
 : 0.8, -0.4
CCC(CC)NCc1c[nH]c2ccccc12
 : 2.7, -0.58
COc1ccc(CC2(CCc3ccncc3)C(=O)NC(=O)NC2=O)c(OC)c1
 : 0.37, 0.19
COC(=O)C1=C(c2ccc(S(C)(=O)=O)cc2)C[C@@H]2CC[C@H]1N2C(=O)NCc1ccco1
 : 0.39, 0
COC(=O)[C@@H]1C[C@]2(C(=O)O)c3ccccc3N(OOSc3ccccc3)[C@@H]2N1C(=O)OC
 : 0.04, 0.83
OCCN(CC#CC(O)(c1ccccc1)C1CCCC1)CCO (stereo not given)
 : 0.32, 0.82

Screening results (PubChem BioAssay)
